Screening results: PubChem BioAssay, National Center for Advancing Translational Sciences (NCATS)
A647 autofl – A647 region autofluorescence. Compound fluorescence, A647 channel (570/671 nm), Tris buffer. max dye-equivalent concentration, M. 59,000 tested, under 10 active. AID 592; active means above 1 µM dye equivalent; inconclusive means 0.1 to 1 µM; inactive means 0.1 µM or less;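 further: values scaled relative to a standard on each plate; highest value over a series up to 38 µM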
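Tris 100 mM pH 8.0; cpd + A647 stds pin-transferred; 15 min RT; CCD imager, ex 570/em 671. Output = A647-equivalent conc. per cpd conc.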
TSHR agonist – activates the human thyroid stimulating hormone receptor | HEK293-CNG-TSHR cells (CNG channel as cAMP sensor), membrane potential dye, cAMP | 0.48% of 73,000 active | Potency, µM (series often up to 57.1 µM), for the others: top-dose activation, most hits filed as activators | P16473; active = well fitted activation curve of enough size with the parental cells flat; inconclusive = any curve in the parental cells; inactive = parental cells flat and receptor cells flat or falling; further: potency means the concentration at half of the fitted maximal effect; % of control where 0% means no effect; weak receptor curves with flat parental cells got no call and are not listed
Target sequence (P16473 whole entry, looked up): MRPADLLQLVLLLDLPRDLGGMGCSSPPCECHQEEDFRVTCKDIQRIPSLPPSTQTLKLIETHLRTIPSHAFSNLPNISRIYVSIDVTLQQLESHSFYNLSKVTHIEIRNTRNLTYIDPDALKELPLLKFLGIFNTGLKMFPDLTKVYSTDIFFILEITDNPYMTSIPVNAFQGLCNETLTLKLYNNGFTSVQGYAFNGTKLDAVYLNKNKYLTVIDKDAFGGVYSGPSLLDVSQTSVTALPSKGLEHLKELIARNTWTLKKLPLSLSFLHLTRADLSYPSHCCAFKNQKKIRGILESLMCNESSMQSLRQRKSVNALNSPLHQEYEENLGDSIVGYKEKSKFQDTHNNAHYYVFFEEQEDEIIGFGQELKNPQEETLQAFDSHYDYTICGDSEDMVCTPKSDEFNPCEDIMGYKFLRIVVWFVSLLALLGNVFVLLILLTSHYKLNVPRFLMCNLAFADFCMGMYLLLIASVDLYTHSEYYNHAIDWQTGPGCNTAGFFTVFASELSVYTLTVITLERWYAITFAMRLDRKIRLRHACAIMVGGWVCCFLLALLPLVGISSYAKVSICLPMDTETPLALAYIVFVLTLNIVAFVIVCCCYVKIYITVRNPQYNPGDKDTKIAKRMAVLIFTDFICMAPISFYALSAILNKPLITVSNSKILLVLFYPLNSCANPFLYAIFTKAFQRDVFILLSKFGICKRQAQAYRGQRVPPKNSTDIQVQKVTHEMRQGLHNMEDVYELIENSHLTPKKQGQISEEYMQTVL
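HEK 293 cells stably expressing TSHR and a modified CNG channel, with CNG-only parental cells as counterscreen, were preloaded 60 min at room temperature with membrane potential dye containing 100 uM RO 20-1724. Compound exposure was 30 min, and depolarization was read as fluorescence at 590 nm.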
A488 fluor – compound fluoresces in the A488 spectral region. compound autofluorescence, A488 spectral region, dye equivalency; hits give high values. max dye equivalency, M. 0.1% of 59,000 active. AID 591; active = above 10 nM dye equivalent; inconclusive = 1 to 10 nM; inactive = 1 nM or less; about half of its hits are not listed in these tables;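 further: highest value over a series up to 38 µM; compound alone in buffer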
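Compound autofluorescence was read in 100 mM Tris pH 8.0 after 15 min at room temperature, ex 480 nm/em 540 nm. Intensities were converted to A488 dye-equivalent concentration using an on-plate six-point A488 standard curve.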
Resorufin autofl – compounds fluorescent in resorufin spectral region. 0.04% of 59,000 active. Compound fluorescence, resorufin region 547/598 nm, buffer; hits give high values. AID 588. max dye-equivalent concentration, M; active = above 10 nM dye equivalent; inconclusive = 1 to 10 nM; inactive = 1 nM or less; a few of its hits are not listed in these tables; further: highest value over a series up to 38 µM
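Tris 100 mM pH 8.0; compound added, 15 min RT; CCD imager read, ex 547 nm/em 598 nm; signal normalized to resorufin standard curve (six concentrations per plate) as dye-equivalent concentration.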
AID923 – qHTS Assay for Allosteric/Competitive Inhibitors of Caspase-1: Spectroscopic Profiling in AFC Spectral Region. compound fluorescence, AFC spectral region (405/520 nm); almost no hit is shown here. Potency, µM (top dose mostly 57.5 µM), for the others: top-dose fluorescence increase, actives largely listed as activators. 1.1% of 75,000 active; active means well fitted activation curve with a large enough effect; inconclusive means small, poorly fitted or top-dose-only effect;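 further: potency means the concentration at half of the fitted maximal effect; 0% is about no effect; scaled to a free AFC standard on each plate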
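Baseline compound fluorescence (AFC region, 405 nm ex/520 nm em) taken from the intercept of kinetic reads with 50 nM caspase-1 and 5 uM Ac-WEHD-AFC; normalized to an on-plate AFC standard curve; compounds titrated up to 57 uM.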
Active calls of the source: *; i = inactive; ? = inconclusive; / = not tested or not shown; [ ] = dose if it differs, or a comment.

Structure | Resorufin autofl | A647 autofl | A488 fluor | TSHR agonist | AID923
Cn1c(=O)[nH]c(=O)c2c1nc(Br)n2CCSc1nnnn1-c1ccccc1 | i | 2.5e-08 | i | / | /
CCN(CC)CCN1C(=O)c2oc3ccccc3c(=O)c2C1c1cccc(Br)c1 (stereo not drawn) | i | 1e-09 | i | 4% | 5.3%
CC(=O)Nc1ccc(S(=O)(=O)NC(CC(=O)NC2CCCCC2C)C(C)C)cc1 (stereo not drawn) | / | / | / | ? | -1.8%
CC(C)OCCCNC(=O)NC12CC3CC(CC(C3)C1)C2 | i | 2e-08 | i | 8% | 0.5%
COc1nc(N)nc(NC23CC4CC(CC(C4)C2)C3)n1 | i | 6.6e-08 | i | ? | -0.5%
NS(=O)(=O)c1cc2c(cc1Cl)N[C@@H](C(Cl)Cl)NS2(=O)=O | i | 1e-09 | i | -6%[25.6 µM] | 1.8%[25.7 µM]
Cc1cc(C)cc(-n2nnc(C(=O)NCc3ccccc3Cl)c2N)c1 | i | 1e-09 | i | ? | 1.8%
Cc1nn(C(C)(C)C)c(OC(=O)c2cccs2)c1S(=O)(=O)c1ccccc1 | i | 1e-09 | i | 6% | 2.1%
COc1ccc(OC)c(-c2cc(C(=O)NCCN3CCOCC3)no2)c1 | i | 2.2e-09 | i | 10% | -0.3%
COc1cc(NC(=O)NC(C)(C(F)(F)F)C(F)(F)F)cc(OC)c1OC | i | 2.8e-08 | i | / | /
OC(COCc1cccs1)CN1CCCCCC1 (stereo not drawn) | i | 2.5e-09 | i | 3% | -0.3%
COc1ccc(C(=O)N2CCN(c3ccc(C)cc3C)CC2)cc1OC | / | / | / | 8% | -1.0%
NC(N)=Nc1ccc(Cl)cc1 | / | / | / | -2% | -0.6%
O=C(c1cccc(F)c1)N1CCC[C@@]2(CCN(Cc3ccncc3)C2)C1 | i | 3.5e-09 | i | 2% | 0.0%
Fc1ccc(CSc2nnc(-c3cccnc3)n2Cc2ccco2)cc1 | i | 1e-09 | i | 27% | 0.5%
CCC(C)c1cc(S(=O)(=O)N2CCOCC2)ccc1OC (stereo not drawn) | i | 1e-09 | i | 9% | -1.1%
CC(C)CCNC(=O)C(c1cccs1)N(CC1CCCO1)C(=O)Cn1nnc2ccccc21 (stereo not drawn) | i | 4.7e-09 | i | ? | -0.5%
Cc1ncoc1C(=O)Nc1cccc(Cl)c1C | i | 1.8e-08 | i | -2% | 1.6%
CCCc1cc(=O)[nH]c(SCC(=O)c2c(N)n(C)c(=O)n(C)c2=O)n1 | i | 5.3e-09 | i | 0% | -0.3%
COc1cc2c(cc1OC)C(c1cccs1)CC(=O)N2 (stereo not drawn) | i | 9.6e-09 | i | 2% | 0.2%
CN(C)CCCNCCCNC(=O)c1ccncc1 | i | 1.1e-08 | i | -1% | 1.9%
CC(=O)Nc1nonc1-n1nnc(C(=O)NCc2ccccc2)c1C | i | 4.8e-08 | i | 6% | -1.1%
CCOC(=O)c1c(C)[nH]c(C(=O)NCc2ccccc2OC)c1C | i | 1e-08 | i | 10% | -0.4%
CC(=O)c1ccc(N2CCCC2)c(F)c1 | / | / | / | 27% | 3.2%
O=C(NC1CCCCCC1)C1CCN(S(=O)(=O)N2CCC3(CC2)OCCO3)CC1 | i | 1e-09 | i | 3% | 1.0%
CC1(C)CC(=O)C2=C(C1)OC(N)=C(C#N)C2c1ccsc1 (stereo not drawn) | / | / | / | -12% | -1.5%
COc1ccccc1NC(=O)N1CCCC1C(=O)Nc1ccc2c(c1)OCO2 (stereo not drawn) | i | 2.2e-09 | i | 4% | 2.2%
O=C(c1cc2ccccc2oc1=O)N(Cc1ccco1)Cc1cccs1 | i | 4.3e-08 | i | / | -0.3%
CC(C)CCNc1nc(N2CCCC2)c2c(c1C#N)CCN(C)C2 | i | 1e-09 | i | -17% | 16%
c1ccc(-c2nc3cc(Cc4ccc5oc(-c6ccccn6)nc5c4)ccc3o2)nc1 | i | 2.7e-08 | i | 16% | -0.5%
CCOC(=O)Cn1c(=O)oc2cc(S(=O)(=O)Nc3cccc(C)c3)ccc21 | / | / | / | -17% | -0.9%
C=C(C)Cn1c(Sc2nnc(C)s2)nc2c1c(=O)[nH]c(=O)n2C | i | 3.3e-08 | i | 8% | 0.0%
Cc1cnc(CNc2ncnc3ccc(-c4ccccc4C)cc23)cn1 | i | 1.1e-09 | i | ? | 2.0%
O=C1C2C3C=CC(C3)C2C(=O)N1CN(Cc1ccccc1)CN1C(=O)C2C3C=CC(C3)C2C1=O (stereo not drawn) | i | 1.5e-08 | i | 11% | -0.3%
CC1=CC=CN2CC(O)CN=C12 (stereo not drawn) | i | 7.2e-08 | i | / | /
CS(=O)(=O)Nc1cccc(-c2ccc3ncnc(N4CCNCC4)c3c2)c1 | i | 3.5e-08 | i | 2% | 0.5%
COc1ccc(-c2cc(C(=O)OCC(=O)N3CCCC3)c3ccccc3n2)cc1 | i | 2.1e-08 | i | 5% | 19%
CCCC1(C(=O)OC)NC(c2cc(OC)c(OC)c(OC)c2)C2C(=O)N(CC)C(=O)C21 (stereo not drawn) | i | 1e-09 | i | -1% | 0.9%
C/C(NCc1cccnc1)=C(\C#N)C(=O)NCc1ccccc1 | i | 5e-08 | i | 9%[11.4 µM] | -0.5%
O=C1NCCCc2c1no[n+]2[O-] | i | 1e-09 | i | -2% | 0.9%
Cc1c(Cl)c(S(N)(=O)=O)cc2c1=NC=NS=2(=O)O | i | 4.7e-08 | i | 2%[11.4 µM] | -3.0%[11.5 µM]
O=C(CCC(=O)NC1CC1)Nc1nnc(C2CCCCC2)s1 | i | 7.5e-09 | i | / | -2.0%
CC1(Cc2ccc3c(c2)OCO3)NC(=O)NC1=O (stereo not drawn) | i | 1e-09 | i | -4% | 0.1%
COc1cccc(Nc2ncnc3c2cnn3-c2cccc(C)c2)c1 | / | / | / | 7% | -0.5%
Cn1c(CNc2ccc(Cl)cc2)nc2ccccc21 | i | 2.2e-09 | i | -6% | 2.0%
COc1ccc(S(=O)(=O)N2Cc3ccccc3CC2C(=O)Nc2ccc(O)cc2)cc1OC (stereo not drawn) | / | / | / | -4% | -0.2%
Cn1c(=O)n(C)c2cc(NC(=O)c3cc4ccccc4o3)ccc21 | i | 1e-09 | i | -8% | 1.3%
COc1ccc(C2C3=C(CC(C)(C)CC3=O)Oc3ncn4nc(-c5cccnc5)nc4c32)cc1OC (stereo not drawn) | i | 1e-09 | i | 7% | -0.7%
Cc1ccc2cc(CNC(C)(C)C)c(=O)[nH]c2c1 | i | 4.1e-08 | i | / | /
Cc1cc(C)cc(OC(=O)N2CCOCC2)c1 | i | 1.1e-08 | i | 3% | -0.6%

Remaining list, next part
Structure | Resorufin autofl | A647 autofl | A488 fluor | TSHR agonist | AID923
CCC(=O)c1ccccc1OCCSc1nc(C)cc(=O)[nH]1 | i | 2.6e-09 | i | -49%[inhibitor] | 0.4%
O=C(CCN1C(=O)C2C3C=CC(C3)C2C1=O)Nc1nccs1 (stereo not drawn) | i | 3.3e-09 | i | 13% | 1.7%
CCC1Oc2ccc(C)cc2N(CC(=O)NCCN2CCCCCC2)C1=O (stereo not drawn) | i | 1.5e-08 | i | 1%[11.4 µM] | 0.3%
COc1ccc(N2CCN(c3nc4ccccc4n3CC(=O)c3ccccc3)CC2)cc1 | i | 3.9e-08 | i | ? | -1.9%
CCN1C(=O)Cc2cc(S(=O)(=O)N3CCOCC3)ccc21 | i | 1e-09 | i | -7% | -0.9%
COC(=O)/C=c1/s/c(=C(/C#N)C(=O)N2CCCCC2)n(-c2ccccc2)c1=O | i | 8.5e-09 | i | / | /
C[C@]1(OC(=O)/C=C\c2ccccc2)C[C@@H](O)[C@@]2(O)C=CO[C@@H](O[C@H]3O[C@@H](CO)[C@@H](O)[C@@H](O)[C@@H]3O)[C@H]21 | i | 9.6e-09 | i | / | -1.5%[25.7 µM]
CC1(C)CC(=O)c2cc(C(=O)N3CCN(CCO)CC3)c(=O)n(-c3ccc(Cl)cc3)c2C1 | / | / | / | 4%[11.4 µM] | -3.5%
O=C(NCCc1ccccc1F)[C@@H]1CSC2c3ccccc3C(=O)N21 (stereo partly drawn) | i | 6.1e-09 | i | 11% | 0.0%
CCC(=O)N1CCN=C1SCc1ccccc1 | / | / | / | 3% | 4.2%
Cn1cccc1C(=O)N1CCC[C@@]2(CCN(C(c3ccccc3)c3ccccc3)C2)C1 | i | 1e-09 | i | ? | 1.6%
O=C(Nc1cccc(O)c1)C1CCCN1C(=O)OCc1ccccc1 (stereo not drawn) | i | 3.8e-09 | i | 6%[11.4 µM] | 1.1%
CCn1c(=O)cc(SCC(=O)N2CCN(c3ccccn3)CC2)c2ccccc21 | i | 1.3e-09 | i | 16% | -2.9%
O=C(NCC1CCCO1)c1cccc(N2C(=O)C3C4C=CC(C4)C3C2=O)c1 (stereo not drawn) | i | 3.8e-08 | i | -2% | -1.1%
Cc1ccc(NC(=O)c2ccc(S(=O)(=O)N3CCCC3)cc2)cc1 | i | 2.9e-08 | i | 1% | -0.7%
CCCN(CCC)S(=O)(=O)c1ccc(C(=O)Nc2nnc(CSC)o2)cc1 | i | 1e-09 | i | 15% | 0.7%
CCCCOc1ccc(C(=O)Nc2cccc(C)n2)cc1 | i | 2.2e-08 | i | 2%[11.4 µM] | -1.1%
CC1CC(C)CN(CCCNC(=O)CNC(=O)Cn2ccc3ccccc3c2=O)C1 (stereo not drawn) | i | 1e-09 | i | 12% | -1.4%
Cc1cccc2cc(C#N)c(SCC(=O)N3CCC(C)CC3)nc12 | i | 1e-09 | i | ? | 5.9%
C1=CN2CCC1C(c1ccccc1)C2 (stereo not drawn) | i | 3.7e-08 | i | 6%[11.4 µM] | 0.4%
CCN(CC)C(=O)CCC(=O)Nc1ccc(C(=O)OC)cc1 | i | 2.6e-08 | i | 0% | -0.4%
CCOC(=O)c1ccc(Nc2c(CC)c(C)nc3ncnn23)cc1 | i | 2.2e-08 | i | 5% | -2.0%
O=C(CSc1nnc(Cc2cc(=O)[nH]c(=O)[nH]2)n1-c1ccc(F)cc1)N1CCCCC1 | / | / | / | 2% | -0.7%
CCCCCCNC(=O)c1c(O)c2cccc3c2n(c1=O)CCC3 | i | 1.8e-08 | i | 2% | 0.3%
Cc1nc2ccccc2c(=O)n1/N=C/c1cn(-c2ccccc2)nc1-c1cccs1 | i | 1e-09 | i | 24% | 0.3%

Part of the list above in another layout:
molecule: CCC(=O)N1CCN=C1SCc1ccccc1
- Resorufin autofl: /
- A647 autofl: /
- A488 fluor: /
- TSHR agonist: 3%
- AID923: 4.2%

molecule: Cn1cccc1C(=O)N1CCC[C@@]2(CCN(C(c3ccccc3)c3ccccc3)C2)C1
- Resorufin autofl: i
- A647 autofl: 1e-09
- A488 fluor: i
- TSHR agonist: ?
- AID923: 1.6%

molecule: O=C(Nc1cccc(O)c1)C1CCCN1C(=O)OCc1ccccc1 (stereo not drawn)
- Resorufin autofl: i
- A647 autofl: 3.8e-09
- A488 fluor: i
- TSHR agonist: 6%[11.4 µM]
- AID923: 1.1%

molecule: CCn1c(=O)cc(SCC(=O)N2CCN(c3ccccn3)CC2)c2ccccc21
- Resorufin autofl: i
- A647 autofl: 1.3e-09
- A488 fluor: i
- TSHR agonist: 16%
- AID923: -2.9%

Next section
Structure | Resorufin autofl | A647 autofl | A488 fluor | TSHR agonist | AID923
O=C(NCc1ccco1)C1CN(S(=O)(=O)c2ccccc2)CCN1S(=O)(=O)c1ccccc1 (stereo not drawn) | i | 8.5e-09 | i | 5% | -0.1%
COc1ccc(CCN2CC(C#N)=C3c4cc(OC)c(OC)cc4CCN3C2)cc1OC | / | / | / | ? | -1.6%
CCCOC(=O)C1[C@H]2C(=O)N(CCCOC)C[C@]23C=C[C@H]1O3 (stereo partly drawn) | i | 1e-09 | i | 12% | -2.0%
CC(C)Oc1ccccc1-c1nc(SCC(=O)O)n[nH]1 | i | 3.4e-08 | i | 8% | -0.6%

Not all compounds are listed. The share of hits here may be higher or lower than overall.
